# NPYLR7 agonist: activates Aedes aegypti NPYLR7 receptor; actives 0.15% (n = 270,000); HEK293T NPYLR7/Galpha15, GCaMP6s calcium fluorescence; activation, % at 10 µM; in the data active = activation above about 40%;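 also: 0% = vehicle and 100% = reference agonist at the receptor; some compounds past the cut are filed as inactive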
# NPYLR7 agonist max-min: recorded beside NPYLR7 agonist, whose call it bears; activation, %; measured here: Max-Min RFU normalised activation; some inactives read as strong as hits;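 span of the calcium signal over five minutes; 0% = vehicle and 100% = native peptide agonist; compound fluorescence can raise it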
# The depositor's hits bear a star; & = joins results of further samples. This is a subset, so the mix of outcomes need not match the whole.
structure	NPYLR7 agonist	NPYLR7 agonist max-min
CCS(=O)(=O)Oc1cc(CN(Cc2ccc(F)cc2)C(=O)c2ccccc2Cl)ccc1OC	12	6
NC(=O)c1ccc(S(=O)(=O)N2CCOc3cccc(F)c32)cc1	-2&6	-3&4
O=C(c1ccc(Cl)cc1)N1CCC(c2nc(-c3ccc(C(F)(F)F)cc3)no2)CC1	5	5
Cn1c(=O)c2c(-c3ccc(Br)cc3)c(Nc3ccccc3)oc2n(C)c1=O	0	-3
Cc1ccc2oc(CN(C(=O)c3ccc(F)c(F)c3)C3CCCCC3)nc2c1	-4	-4
O=C(NCC(c1ccc(F)cc1)N1CCCC1)c1c[nH]c(=O)[nH]1 (stereo not drawn)	0	-3
O=C(NCC1CCCN(Cc2ccc(-c3ccccc3Cl)o2)C1)c1cccnc1 (stereo not drawn)	7	4
Cc1ccccc1SC1CCN(C(=O)[C@@H]2C[C@@H](N)CN2)CC1	16	10
N#Cc1cc2c(nc1SCC(=O)Nc1cccc(C(F)(F)F)c1)CCCCC2	12	9
COC(=O)[C@@H]1CCCN1Cc1nc(-c2cc(OC)ccc2F)oc1C	22	7
CC(Sc1nc2ccccc2o1)C(=O)N1CCOCC1 (stereo not drawn)	11	8
O=C(NCC(=O)N1CCn2nc(C(=O)Nc3ccccc3)cc2C1)c1ccccc1	-1	-4
O=C(CCc1cccs1)NCc1cccnc1N1CCOCC1	14	6
CC1(C)[C@H]2CC=C(CN3CCC(N4CCC(C(=O)NC5CC5)CC4)CC3)[C@@H]1C2	-4	-6
O=C1NCC2(CCCN(C(=O)Cc3cn4ccsc4n3)C2)O1 (stereo not drawn)	9	8
C[C@@H]1C[C@@H](CC(=O)N2CCC3(CC2)CC3C(=O)N2CCN(C3CCCCC3)CC2)NC(=S)N1 (stereo partly drawn)	1	2
CCCCOc1ccc(C(=O)Nc2nc(CC(=O)OCC)cs2)cc1	8	7
CN(C)CCn1ccnc1-c1cc(CN(C)C)cs1	-2	-10
CCN1CCCC1CNC(=O)CCC1CCN(Cc2ccc(SC)cc2)CC1 (stereo not drawn)	8	7
Cc1ccccc1-c1ccc(N2CCC(C(=O)NC3CC3)CC2)nn1	-10	-11
S=C(NCC1CCCO1)N1CCc2ccccc21 (stereo not drawn)	3	1
CC(NC(=O)NCCc1ccccc1C(F)(F)F)c1nccs1 (stereo not drawn)	9	5
COC(=O)c1c(NC(=O)c2ccco2)sc2c1CCC2	1	7
Cn1cnnc1SCc1ccccc1Br	-1	-3
Cc1cccc(C(=O)NCC2COc3ccccc3O2)c1 (stereo not drawn)	-16	-20
CCn1c(C)cc(O)c(C(c2ccccn2)N2CCC(C)CC2)c1=O (stereo not drawn)	9	3
COc1cc(NC(=O)c2sc3ccc4ccccc4c3c2Cl)cc(OC)c1	11	18
COc1cccc(OCc2nc(C(=O)N[C@@H]3C[C@H]3c3ccccc3)co2)c1	2	1
COc1ccc(C(=O)Cn2cc(C)c(=O)[nH]c2=O)c(OC)c1	1	-3
O=C(O)c1cc(N=Cc2nc(-c3ccc(Cl)cc3)oc2O)ccc1O	5	7
CC(c1nc2ccccc2c(=O)[nH]1)N(C)CCOc1ccccc1Cl (stereo not drawn)	2	1
FC(F)(F)CCc1ccccc1NCc1cccnc1	8	5
COc1ccc(Nc2nn(-c3ccccc3)c3c2C(=O)CCC3)cc1	2	1
CCc1ocnc1C(=O)N(C)Cc1csc(-c2ccccc2)n1	-1	-2
COC(=O)C1=C(C)N=c2s/c(=C\c3cccnc3)c(=O)n2C1c1ccc(OC)cc1 (stereo not drawn)	2	-1
CC(=O)N1CCN(c2ncnc3c2nnn3-c2ccc(Cl)cc2)CC1	-8	-15
CCOc1ccc2cc(-c3csc(Nc4cccc(C(F)(F)F)c4)n3)c(=O)oc2c1	-3	-7
CCOc1ccc(-c2nnc(SC(F)F)n2CCC(=O)O)cc1	20	15
O=C(NCc1ccco1)c1cc2c(s1)CCCC2	5	4
COc1cc(CNc2ccc(CC(=O)NCc3cccc(C)c3)cc2)cc(OC)c1	6	5
Cc1ccccc1Cn1cc(C(=O)N2CCCN(Cc3cccs3)CC2)nn1	2	-1
O=[N+]([O-])c1ccc2c(c1Nc1ccccc1Cl)=NC1(CCCCC1)N=2	0	-1
COc1cccc(NC(=O)C2(C)CCN2C(=O)C/C=C/c2ccccc2)c1 (stereo not drawn)	1	1
Cn1ncc(Oc2ccc(Cl)cc2)c(Nc2cccc(C(=O)O)c2)c1=O	14	14
O=[N+]1C(c2ccccc2)=C(c2ccccc2)N([O-])C2CCCCC21 (stereo not drawn)	2	-5
O=c1c2cc3c(cc2nc(SCc2cc(=O)n4cc(Br)ccc4n2)n1CCC1=CCCCC1)OCO3	13	6
O=C(c1cnsn1)N1CCc2c(cc(-c3ccc(F)cc3F)c(=O)n2Cc2ccccn2)C1	12	4
Cc1ccc(F)cc1NCCOc1ccc(S(N)(=O)=O)cc1	3	2
Cc1nc(C(C)NC(=O)CCc2c[nH]c3ccccc23)n[nH]1 (stereo not drawn)	3	2
Cc1cc(N2C(=O)c3oc4ccccc4c(=O)c3C2c2ccc([N+](=O)[O-])cc2)no1 (stereo not drawn)	5	3
CC1c2ccsc2CCN1C(=O)c1ccc(NC2CC2)nc1 (stereo not drawn)	-20	-22
CC(C)(NC(=O)c1c[nH]c(=O)c(Br)c1)c1cccs1	4	4
CCN(C(=O)Cc1ccncc1)C1CCS(=O)(=O)C1 (stereo not drawn)	-1	5
COc1ccccc1Cn1c(=S)[nH]c2ccccc2c1=O	-4	-9
Cc1ccc(-c2cc(C(=O)N3CCN(C(c4ccccc4)c4ccccc4)CC3)n(-c3ccc(F)cc3)n2)o1	-1	1
Cc1cc(Oc2cnn(C)c(=O)c2Nc2ccc(C(=O)O)cc2)ccc1Cl	11	7
CCc1cn[nH]c1C1CCN(C(=O)c2cc(C)nc3c2cnn3C(C)C)CC1	2	-3
O=C1CCC(C(=O)Nc2ccc(Cl)cc2C(=O)N2CCCC2)N1 (stereo not drawn)	8	4
COc1ccncc1I	-5	-4
Cc1ccccc1-c1nccn1CCc1n[nH]c2c1CCCC2	-2	-3

# Single entries from the results shown:
# For NPYLR7 agonist max-min, O=C(NCc1ccco1)c1cc2c(s1)CCCC2 is listed with 4
# For NPYLR7 agonist, CCc1cn[nH]c1C1CCN(C(=O)c2cc(C)nc3c2cnn3C(C)C)CC1 is listed with 2

# The results go on.
structure	NPYLR7 agonist	NPYLR7 agonist max-min
Cc1c(CCC#N)c(-n2ccnc2)n2c(nc3ccccc32)c1C#N	3	2
CCS(=O)(=O)Oc1cccc(CN(C(=O)c2cccc(Br)c2)C(C)C)c1	7	7
CCC(C)N(Cc1cc(NC(=O)c2cccs2)ccc1N(C)C)C(=O)Nc1cccc(F)c1 (stereo not drawn)	2	13
COc1ccc(/C=C\C(=O)Nc2cc(-c3cccs3)nn2-c2nc(C)c(C)c(=O)[nH]2)cc1OC	4	2
CCCCCCCn1c(CN2CCCCC2C)nc2c1c(=O)n(C)c(=O)n2C (stereo not drawn)	-1	-4
COc1ccc(CNC(=O)c2cccnc2N2CCN(S(=O)(=O)c3cc(F)cc(F)c3)CC2)cc1	20	13
COc1cn(CC(=O)N2CCCc3ccccc32)c(CSc2ccc(C)cc2)cc1=O	-5	-10
CC1CN=C(Nc2cccc(S(=O)(=O)N(C)C)c2)S1 (stereo not drawn)	1	0
CC1(C(=O)NCC(F)(F)F)CCN1C(=O)C1(c2ccccc2)CC1 (stereo not drawn)	4	21
CC(C)COc1nc(-c2ccc(C(F)(F)F)cc2)n(-c2cccc(NC(=O)c3ccc([N+](=O)[O-])cc3)c2)n1	11	14
CC(C)c1ccc(S(=O)(=O)c2nnn3c2nc(N2CCC(C(N)=O)CC2)c2sccc23)cc1	-6	-12
Cc1ccc(OCCSc2nc3ccccc3n2CCOc2ccc(C)cc2)cc1	-9	-19
CCC(=O)Nc1nc(-c2cc(C)ccc2C)cs1	-10	-14
Clc1ccc(C2CN(Cc3cc(-c4cccnc4)no3)CCO2)cc1 (stereo not drawn)	4	1
Cc1ccc(N2CCN(S(=O)(=O)N(C)C)CC2)nn1	-15	-19
COc1ccc(S(=O)(=O)Oc2cc(CN(CC3CCCO3)C(=O)NC(C)(C)C)ccc2OC)cc1 (stereo not drawn)	0	4
CCCc1nc(C)c(C(=O)N2CCCN(C(=O)Nc3cccc(Cl)c3)CC2)s1	-3	-4
CC1(C(=O)NCCC#N)CCN1C(=O)CCc1ccccc1 (stereo not drawn)	9	6
CC(=O)O[C@H]1CC[C@]2(C)C3CC(=O)[C@]4(C)C(C(C)=O)=CCC4C3CC[C@H]2C1 (stereo partly drawn)	-5	-9
Cc1ccc(-c2cc(C(=O)NCC3CCCO3)c3c(C)nn(C4CCS(=O)(=O)C4)c3n2)cc1 (stereo not drawn)	2	7
Cc1nc(C)c(CC(=O)N2CCc3c([nH]c4ccccc34)C2c2ccccn2)s1 (stereo not drawn)	23&-3	16&-4
CC(C)(C)C(Cc1ccccc1)Nc1cc(Cl)nc(N)n1 (stereo not drawn)	7	6
COC(=O)c1ccc(C(=O)N(CCCN(C)C)c2nc3c(Cl)cccc3s2)cc1	6	4
CC12CCC(C(=O)N(c3nccs3)C1=O)C2(C)C (stereo not drawn)	8	5
Cc1ccccc1C(NC(=O)C1CCN(CCCOc2ccc(F)cc2)CC1)c1ncccc1C (stereo not drawn)	-18	-20
COc1ccc(C=NNC(=O)c2cc(C34CC5CC(CC(C5)C3)C4)[nH]n2)cc1OC	0	-1
O=C(c1cc2ccccc2oc1=O)N1CCN(c2ccc([N+](=O)[O-])cc2)CC1	1	0
O=C(CN1CN(c2ccccc2)C2(CCN(C(=O)c3cccc4ccccc34)CC2)C1=O)NCCc1ccccn1	-15	-9
Cc1ccc2c(c1)N(C(=O)CN1CCN(Cc3ccccc3C)S1(=O)=O)CCO2	4	9
O=C1CCCN1CCn1ccnc1-c1ccc(-c2ccn[nH]2)o1	5	2

# Gathered by group: the compounds so far containing a cyano group (3)
structure	NPYLR7 agonist	NPYLR7 agonist max-min
N#Cc1cc2c(nc1SCC(=O)Nc1cccc(C(F)(F)F)c1)CCCCC2	12	9
Cc1c(CCC#N)c(-n2ccnc2)n2c(nc3ccccc32)c1C#N	3	2
CC1(C(=O)NCCC#N)CCN1C(=O)CCc1ccccc1 (stereo not drawn)	9	6

# The list continues:
structure	NPYLR7 agonist	NPYLR7 agonist max-min
CCc1nc2ccc(C(=O)Nc3cccc(OC)c3)cn2c1N(C)C(=O)Cc1ccccc1	5	-1
CC(=O)c1cccc(Nc2nnc(C(C)(C)C)c(=O)[nH]2)c1	-1	-3
CC(C)Cc1cc(CN2CCN(c3ncnc4ccsc34)CC2)[nH]n1	3	1
C=CCn1c(=O)c2c(nc3n(-c4cc(OC)ccc4OC)c(C)c(C)n23)n(C)c1=O	15	11
C=CCCC(O)CN(CCC(C)C)Cc1cccn1Cc1ccccc1C (stereo not drawn)	-5	-4
CCC(CC)n1ncc(C)c1NC(=O)Cc1ccc2c(c1)NC(=O)CO2	6	6
Cc1nn(C)c(=O)c2c1cnn2C(C)(C)C	8	4
CCn1c(C)cc(O)c(C(c2ccc(C)cc2)N2CCN(C)CC2)c1=O (stereo not drawn)	12	7
c1csc(-c2nnc(CSc3nc4ccccc4[nH]3)o2)c1	-1	-1
COc1nn(C)cc1C(=O)N1CCN(C(C)=O)CC1	3	2
CN(C)c1c([N+](=O)[O-])c(C(Cl)Cl)nn1-c1ccccc1	-7	-12
COC(=O)C1CCN(C(c2ccc(Cl)c(Cl)c2)C2Sc3nc(C)nn3C2=O)CC1 (stereo not drawn)	1	0
COc1ccc(-n2cccn2)c(CN2CCC(n3nc(C)cc3C)C2)c1 (stereo not drawn)	5	4
Cc1nc(CCNC(=O)c2ccc3oc(CCc4ccccc4)nc3c2)nc2c1CCC2	14	7
CCCS(=O)(=O)N1CCC(Nc2nn3cc(C(C)(C)C)nc3s2)CC1	17	12
Nc1c(C(=O)CSc2nc3ncccn3n2)c(=O)[nH]c(=O)n1C1CC1	17	6
Cc1c(NC(=O)c2cccc(CN3CC[C@@H]4CCCC[C@H]4C3)c2)cnn1C	-14	-13
CC(=O)c1ccc(N2C(=O)/C(=C/c3ccc(-c4cc(Cl)ccc4Cl)o3)C=C2c2ccccc2)cc1	-1	4
CCC(C)NC(=O)CS(=O)(=O)CCCC(=O)NC(=O)NC (stereo not drawn)	2	7
COc1ccc(NC(=O)CSc2nc(=O)n(N3CCN(C)CC3)c3c2CCCC3)c(OC)c1	0	-8
CC1(C)CC(CCNC(=O)c2cn(C3CCCCC3)nn2)(c2ccccc2)CCO1 (stereo not drawn)	15	8
Nc1cc(-c2ccc(Br)cc2)[nH]n1	6	6
CN(C(=O)c1cc2ccccc2s1)[C@@H]1CS(=O)(=O)C[C@H]1O	-5	-6
COc1cccc(F)c1-c1c(-c2ccccc2)ncn1Cc1n[nH]c2c1CCC2	-4	-8
CC(C)NC(=O)CN1C(=O)CSC1=CC(=O)C1CC1	-3	-3
OC(CN(Cc1cccs1)C1CC1)c1ccccc1Cl (stereo not drawn)	8	5
COc1ccc(C)cc1N1C(=O)CSC1c1ccc(NC(=O)C(C)Cl)cc1 (stereo not drawn)	33	31

# Two entries from above, set out differently.
compound: COc1nn(C)cc1C(=O)N1CCN(C(C)=O)CC1
  NPYLR7 agonist: 3; NPYLR7 agonist max-min: 2

compound: CN(C)c1c([N+](=O)[O-])c(C(Cl)Cl)nn1-c1ccccc1
  NPYLR7 agonist: -7; NPYLR7 agonist max-min: -12

# Screening data from PubChem.
